# Screening data (PubChem)
# Rango dissoc inh: qHTS Assay for Inhibitors of RanGTP induced Rango (Ran-regulated importin-beta cargo) - Importin beta complex dissociation; Snurportin-1 (Homo sapiens) + GTP-binding nuclear protein Ran (Homo sapiens) + Importin …; Biochemical FRET Rango-importin beta, RanGTP-induced dissociation; Potency, µM (titrated, usually from 46.1 µM), inactives show at the top dose activity change, negative = inhibition; 340,000 compounds, 0.071% hits; AID 540253, 2011; active means falling FRET ratio curve, often poorly fitted, with flat reads before Ran was added; inconclusive means other falling curves, or compound fluorescence or quenching; inactive means flat or rising ratio curve;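 also: potency is read from the fitted curve at half-maximal effect; % of control where 0% means no effect; nearly all actives have a fitted effect of over 45% in size; -100% = wells without RanGTP and RCC1; the record marks most hits as doubtful in a second field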
#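 Compounds preincubate 5 min with complex of recombinant Rango and importin beta in PBS with 1 mM DTT. Ran (0.6 uM) loaded with 2 mM GTP plus 0.2 uM RCC1 starts dissociation; FRET is recorded 45 min later.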
# Rango-impB inh: qHTS Assay for Inhibitors of Rango (Ran-regulated importin-beta cargo) - Importin beta complex formation | Potency, µM (series often up to 92.2 µM), for the others: top-dose inhibition of complex formation | Rango CFP/YFP FRET sensor + importin beta, 45 min | 340,000 compounds, 0.031% hits | Importin subunit beta-1 (Homo sapiens), Q14974 | AID 540263, 2011; active = rising FRET ratio curve, often small or poorly fitted; inconclusive = mostly compound fluorescence or quenching in the first reads; inactive = flat curves in all reads;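 also: potency is read from the fitted curve at half-maximal effect; 0% = DMSO wells and 100% = buffer wells lacking importin beta; nearly all actives have a fitted effect of over 15% in size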
# Target sequence (Q14974 whole entry, looked up): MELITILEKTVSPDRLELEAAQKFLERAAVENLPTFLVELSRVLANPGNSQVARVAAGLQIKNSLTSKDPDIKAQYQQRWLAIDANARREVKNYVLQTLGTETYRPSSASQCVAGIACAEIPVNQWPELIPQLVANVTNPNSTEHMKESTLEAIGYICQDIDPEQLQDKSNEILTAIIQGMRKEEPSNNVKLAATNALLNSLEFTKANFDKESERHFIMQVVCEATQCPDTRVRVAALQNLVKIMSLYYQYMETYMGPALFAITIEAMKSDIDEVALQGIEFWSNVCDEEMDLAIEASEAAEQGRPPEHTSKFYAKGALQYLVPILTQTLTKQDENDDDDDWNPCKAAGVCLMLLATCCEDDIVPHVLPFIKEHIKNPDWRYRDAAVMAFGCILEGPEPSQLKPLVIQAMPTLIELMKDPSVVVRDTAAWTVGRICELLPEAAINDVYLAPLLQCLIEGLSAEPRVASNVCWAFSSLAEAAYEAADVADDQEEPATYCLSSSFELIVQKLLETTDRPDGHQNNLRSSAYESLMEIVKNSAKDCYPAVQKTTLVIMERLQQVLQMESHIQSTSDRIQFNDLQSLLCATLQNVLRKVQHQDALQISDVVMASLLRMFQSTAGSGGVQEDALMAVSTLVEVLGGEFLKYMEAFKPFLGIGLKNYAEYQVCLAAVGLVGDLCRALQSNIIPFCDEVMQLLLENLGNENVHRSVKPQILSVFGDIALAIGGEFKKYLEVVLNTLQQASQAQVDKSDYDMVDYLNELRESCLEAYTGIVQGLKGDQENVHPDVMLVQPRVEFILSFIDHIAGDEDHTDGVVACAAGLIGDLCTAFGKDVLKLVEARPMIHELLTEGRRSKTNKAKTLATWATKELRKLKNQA
#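 FRET biosensor (snurportin 1 IBB flanked by EYFP and cerulean), 50 nM, with compound 5 min, then 0.125 microM importin beta in PBS, 1 mM DTT, 0.02% Tween-20, 0.1% BSA. CFP/YFP ratio read after 45 min at room temperature; pre-read flags interference.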
# GLA inh pH 4.5: qHTS Assay for Inhibitors of Human alpha-Galactosidase at pH 4.5 | Alpha-galactosidase A (Homo sapiens), P06280 | 230,000 tested, under 10 active | purified enzyme, 4-MU-alpha-Gal fluorescence, pH 4.5 | AID 1467, 2008 | activity change, negative = inhibition, % at 105 µM; inconclusive = small, poorly fitted or top-dose-only inhibition, or a rising curve; inactive = flat fitted curve, though single readings scatter; no compound was filed as active;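 also: 0% = full activity with enzyme and -100% = basal without enzyme; dose as in the result columns while the protocol names 77 µM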
# miR-21 reporter: qHTS Assay for Modulators of miRNAs and/orActivators of miR-21 | HeLa miR-21 FLuc reporter, luciferase, 48 h | 340,000 tested, under 10 active | AID 2288, 2010 | Potency, µM (highest dose often 38.3 µM), for the others: at the top dose reporter change, positive = more light; active = well fitted rising curve with a large enough effect; inconclusive = small, poorly fitted or top-dose-only effect; inactive = no such curve, though single readings can be large or run the other way;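 also: % of control where 0% means no effect; miR-21 action dims this reporter so a rising signal means less miR-21 action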
#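 Using DMEM plus 10% FBS, HeLa miR-21-FLuc cells are incubated with test compounds (final up to about 40uM) for 48 hours; firefly luciferase signal is then imaged following reagent-mediated lysis.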
# * = called active by the depositor; ? = inconclusive; . = not tested or not shown. This is a subset. The share of hits here may be higher or lower than overall.
# A first look, 3 compounds:
Rango dissoc inh	Rango-impB inh	GLA inh pH 4.5	miR-21 reporter	smiles
5%	3.9%	0	0%	CN(c1ccc(C(=O)NCc2cccnc2)cc1)S(C)(=O)=O
1%	0.1%	5	-7%	S=C1NC2=C(C(c3ccc(Br)cc3)N1)N1CCC2CC1 (centres undefined)
-15%	0.9%	1	-11%	COc1ccccc1/C=C/C(C)=O

# The listing (from the top)
Rango dissoc inh	Rango-impB inh	GLA inh pH 4.5	miR-21 reporter	smiles
5%	3.9%	0	0%	CN(c1ccc(C(=O)NCc2cccnc2)cc1)S(C)(=O)=O
1%	0.1%	5	-7%	S=C1NC2=C(C(c3ccc(Br)cc3)N1)N1CCC2CC1 (centres undefined)
-15%	0.9%	1	-11%	COc1ccccc1/C=C/C(C)=O
0%	-1.6%	4	2%	O=C(CCSc1ccccc1)NC(=O)COC(=O)C1CCCCC1
-9%	-0.6%	.	-5%	O=C1c2ccccc2NC(c2cccc(O)c2)N1c1ccccc1 (centres undefined)
0%	2.6%	.	5%	CC(=O)Nc1cccc(NC(=O)CCNC(=O)c2ccc(Cl)cc2)c1
-19%	?	-20	-3%	COc1ccc(/C=C(\C#N)C(=O)ONC2=NCCCCC2)cc1
1%	3.7%	7	1%	C(=NCCCN1CCOCC1)c1ccc2c(c1)OCO2
1%	-2.9%	2	-3%	CCC(CC)C(=O)c1c[nH]c(C(=O)NCCOC)c1
.	.	-10	-1%	CN(C(=O)c1c(Br)cnn1C)C12CC3CC(CC(C3)C1)C2
-1%	?	2	-23%	Cc1nc2ccc(NC(=O)c3ccc(Cl)nc3)cc2s1
-3%	2.3%	.	-9%	COc1ccc2nc(NC(=O)c3ccccc3C(=O)O)sc2c1
-13%	9.0%	-3	0%	COc1cc(OC)cc(-c2cc(N3C(=O)Nc4ccccc4N3O)n[nH]2)c1
6%	-1.8%	-1	4%	COc1ccc(N(CCC(=O)O)S(=O)(=O)c2ccc(C)cc2C)cc1
13%	-1.1%	.	.	CC1(c2ccc(OC(F)F)cc2)NC(=O)N(CC(=O)Nc2cccnc2Cl)C1=O (centres undefined)
16%	0.2%	.	.	Cc1ccccc1NC(=O)C(C)OC(=O)C1CC(=O)N(Cc2ccco2)C1 (centres undefined)
13%	0.3%	.	-1%	Cc1ccnc(NC(=O)CCC(=O)N(CC(=O)NCCc2ccccc2)c2ccccc2F)c1
-9%	-0.8%	5	-52%	COc1ccc(C(=O)Oc2ccc3c(c2)OCO3)cc1OC
-25%	?	-8	8%	CCc1cccc(C)c1NC(=S)NCc1ccc2[nH]c(C)cc2c1
5%	-0.6%	.	-1%	CC(Oc1cc2oc(=O)c3c(c2cc1Cl)CCC3)C(=O)NCC1CCC(C(=O)O)CC1 (centres undefined)
5%	4.1%	.	.	CCCCN(C(=O)C(CCSC)N1C(=O)c2ccccc2C1=O)c1c(N)n(CCC)c(=O)[nH]c1=O (centres undefined)
-5%	1.2%	.	23%	COc1cccc(N2CCN(C(=O)c3ccc(CS(=O)c4ccc(C)cc4)o3)CC2)c1 (centres undefined)
10%	-3.8%	.	.	Cc1csc(CNc2ncnc3ccc(-c4ccccc4Cl)cc23)c1
18%	0.3%	2	-36%	COC(=O)CSc1ccc(-c2nc3ccc(C)cc3[nH]2)cn1
-23%	4.3%	.	.	Cc1noc(C)c1NC(=O)N(C)C[C@H]1Oc2ccc(NC(=O)C3CCCCC3)cc2C(=O)N([C@H](C)CO)C[C@@H]1C
-10%	-1.1%	.	.	CN(Cc1ccc(Cl)cc1)C(=O)c1ccccc1SCC(=O)N1CCCC1
11%	-0.2%	.	.	Nc1nc2ccccc2n1/N=C/c1cccnc1
-10%	-0.4%	-5	0%	CN(C)S(=O)(=O)c1ccc(NC(=O)c2c(F)cccc2Cl)cc1
-11%	-0.6%	.	-8%	CSCCC(NC(=O)COc1ccccc1)C(=O)N1CCCC(C)C1 (centres undefined)
-11%	0.6%	.	.	CCc1ccc(C(=O)NNC(=O)C2CCN(c3ncnc4sc(C)c(C)c34)CC2)cc1
5%	-0.3%	6	-13%	CCCCCSc1ncccc1C(=O)O
-9%	4.1%	10	-2%	CC(C)N(C#N)c1nc(N2CCOCC2)nc(N2CCOCC2)n1
-6%	0.0%	2	1%	COc1cccc(CCc2nnc(CCC(=O)N3CCN(Cc4ccccn4)CC3)o2)c1
14%	-0.6%	-2	-6%	COc1cccc(-c2nn(-c3ccccc3)cc2C(=O)O)c1
5%	-0.6%	12	-9%	CCN(C#N)c1nc(NC(C)C)nc(NC(C)(C)C)n1
-5%	0.2%	.	-4%	Cc1ccc(C(=O)NC(=S)Nc2ccccc2N2CCOCC2)cc1C
9%	-3.3%	5	-13%	O=C(NN1C(=O)c2cc(Br)ccc2NC1c1ccccc1Cl)c1ccncc1 (centres undefined)
0%	4.2%	0	3%	CC(C)CN(C)C(=O)CC1C(=O)NCCN1C (centres undefined)
0%	-0.5%	1	-3%	S=C(NCCN1CCOCC1)NC1CCCCC1
7%	1.4%	.	-2%	CC1CN(C(=O)CCC(=O)N2CCOCC2)c2ccccc2O1 (centres undefined)
-21%	3.3%	1	-48%	COc1ccc(-c2cn3cc(Br)cnc3n2)cc1
.	.	4	-2%	Cn1c(=O)c2c3c(sc2n2c(SCc4ccccc4)nnc12)CCCC3
5%	2.8%	.	.	O=C(CCNS(=O)(=O)c1ccccc1C(F)(F)F)NCCCc1ccccc1
9%	3.0%	.	-3%	O=C(O)c1cc(NS(=O)(=O)c2ccc3ccccc3c2)ccc1O
5%	-0.1%	4	-19%	COc1ccc(-c2ccnc3nc(-n4cccc4)nn23)cc1
5%	0.2%	-1	-1%	CCOC(=O)C1CCCN(C(=O)c2ccccc2Oc2ccccc2)C1 (centres undefined)
34%	1.4%	.	.	CCCN(CC(=O)Nc1ccccc1OC)C(=O)c1ccc(S(=O)(=O)NCc2ccco2)cc1
12%	1.6%	1	-1%	O=C(O)c1ccc(CNCc2ccc(F)cc2)cc1
-6%	-5.0%	3	0%	CC1CCCC(C)N1S(=O)(=O)c1ccc(NC(=O)CCn2cnc3ccccc3c2=O)cc1 (centres undefined)
-2%	-0.5%	.	1%	O=C(NCc1ccc(F)cc1)c1ccncc1
-5%	1.0%	.	.	CCN(CC)S(=O)(=O)c1ccc(N2CCN(C)CC2)c(NC(=O)CN2C(=O)NC3(CCCCC3)C2=O)c1
4%	1.2%	.	0%	O=C(COc1ccccc1)N1CCN(C(=O)COc2ccccc2)CC1
?	?	3	1%	Cc1ccc(CNC(=O)c2cc3c(=O)n4ccccc4nc3n(Cc3ccco3)c2=N)cc1
-14%	0.4%	-4	-34%	Cc1cc(N2CCOCC2)nc2ccccc12
2%	-3.0%	.	.	CC(Oc1ccc(F)cc1)C(=O)N(CCC1=CCCCC1)c1c(N)n(Cc2ccccc2)c(=O)[nH]c1=O (centres undefined)
-3%	-2.6%	.	.	C=CCOC(=O)C1=C[C@H](c2ccc3c(c2)OCO3)C[C@H](OCCCCO)O1

# (further entries)
Rango dissoc inh	Rango-impB inh	GLA inh pH 4.5	miR-21 reporter	smiles
12%	-1.3%	-5	0%	Cc1ccc(S(=O)(=O)N2CCNC(=O)CC2)cc1
-16%	-5.2%	4	-4%	CC(C)(C)n1nc2c(c1NC(=O)c1ccc(S(=O)(=O)N3CCCC3)cc1)CSC2
-23%	6.9%	-7	-10%	CCOc1ccc(NC(=O)Cc2cccc3ccccc23)c([N+](=O)[O-])c1
8%	-2.4%	-4	-35%	Cc1ccc(N=C2CCCN2Cc2ccccc2)c(C#N)c1
20%	2.8%	14	-12%	COc1ccc2c(-c3ccccc3)cc(=O)[nH]c2c1
-7%	-2.6%	-10	-4%	O=C(CNS(=O)(=O)c1ccc(Br)s1)NC1CCCc2ccccc21 (centres undefined)
-3%	-2.9%	3	-14%	CN1CCN(C2=C(Cl)C(=O)N(C3CCCCC3)C2=O)CC1
2%	0.1%	3	-9%	O=C(CNC(=O)c1ccc(Cl)cc1)OCC(=O)c1ccc2c(c1)OCCO2
-7%	?	4	-5%	CC1(C)Cc2c(sc3nc(N/N=C/c4ccccc4)[nH]c(=O)c23)CO1
-15%	1.2%	.	0%	COc1cc(CC(=O)OCC(=O)N2CC(C)CC(C)C2)cc(OC)c1OC (centres undefined)
-11%	1.0%	-7	-3%	Cc1ccc2c(c1)nnn2C1CCN(S(=O)(=O)c2ccc(C(=O)O)cc2)CC1
-21%	?	-7	-23%	COc1ccc(C(=O)NCC(=O)OCC(=O)Nc2sccc2C#N)cc1OC
-4%	-2.6%	-2	-4%	Cc1ccccc1NC(=S)Nc1ccc2[nH]c(=O)[nH]c2c1
-6%	2.7%	4	-2%	CCN(CC)C(=O)CN1C(=O)C(=O)c2ccccc21
-14%	2.4%	-3	-19%	CCCCN(CC)CCNC(=O)c1cc2c(=O)n(C)c3ccccc3c2n1C
-4%	0.8%	-18	1%	CCCOc1c(Br)cc(C(=O)NCC)cc1OC
8%	6.2%	-4	10%	O=C(Nc1cccc(-c2csc(Nc3ccccc3)n2)c1)c1ccccc1
9%	-1.2%	-5	-3%	COc1ccc(CNC(=O)CN(CC2CCCO2)C(=O)CNS(=O)(=O)c2ccc(C)cc2)cc1 (centres undefined)
13%	0.9%	-6	-1%	COc1ccc(S(=O)(=O)N2CCCC(C(=O)N3CCOCC3)C2)cc1C (centres undefined)
1%	0.2%	-8	-24%	O=[N+]([O-])c1ccc(N2CCN(CCO)CC2)cc1NCc1ccco1
-9%	3.3%	-4	-3%	O=C(O)CSc1nnc(C2CC2)n1-c1ccccc1
2%	-0.3%	.	23%	COc1ccc(C(=O)C2CCN(C(=O)c3ccc(OC)cc3)CC2)cc1
6%	-2.4%	.	-1%	COc1ccc(/C=N/NC2=NS(=O)(=O)c3ccccc32)cc1
8%	-1.6%	2	5%	COc1cc2cc(CN(Cc3cccnc3)C(=O)Nc3ccccc3)c(=O)[nH]c2cc1OC

# Among those listed so far, these have a tert-butyl group.
Rango dissoc inh	Rango-impB inh	GLA inh pH 4.5	miR-21 reporter	smiles
5%	-0.6%	12	-9%	CCN(C#N)c1nc(NC(C)C)nc(NC(C)(C)C)n1
-16%	-5.2%	4	-4%	CC(C)(C)n1nc2c(c1NC(=O)c1ccc(S(=O)(=O)N3CCCC3)cc1)CSC2

# Molecules from the list above containing two or more sulfur atoms, in the order listed:
Rango dissoc inh	Rango-impB inh	GLA inh pH 4.5	miR-21 reporter	smiles
.	.	4	-2%	Cn1c(=O)c2c3c(sc2n2c(SCc4ccccc4)nnc12)CCCC3
-16%	-5.2%	4	-4%	CC(C)(C)n1nc2c(c1NC(=O)c1ccc(S(=O)(=O)N3CCCC3)cc1)CSC2
-7%	-2.6%	-10	-4%	O=C(CNS(=O)(=O)c1ccc(Br)s1)NC1CCCc2ccccc21 (centres undefined)

# Carrying on:
Rango dissoc inh	Rango-impB inh	GLA inh pH 4.5	miR-21 reporter	smiles
-13%	1.8%	.	-1%	O=C(NC1CCCCC1)C(c1ccncc1)N(C(=O)c1csnn1)c1ccccc1 (centres undefined)
13%	-0.1%	-2	-2%	C=CCO/N=C/C1C(=O)CC(C)(C)CC1=O
2%	-1.4%	-11	-9%	Cn1c(=O)cc(SCC(=O)N2CCOCC2)c2ccc(Cl)cc21
10%	-1.4%	-4	-4%	CCCCn1c(C(C)NC(=O)c2cccs2)nc2ccccc21 (centres undefined)
?	-1.6%	-4	5%	CCN(Cc1cnn(C)c1)C(=O)CC1C(=O)NCCN1Cc1cccc(OC)c1OC (centres undefined)
8%	-3.9%	-6	9%	CCCc1[nH]nc2c1C(c1ccc(O)cc1OCC)C(C#N)=C(N)O2 (centres undefined)
8%	3.7%	6	-8%	CCCS(=O)(=O)N1CCN(Cc2ccccc2OCC)CC1
5%	1.2%	2	-4%	COCCNC(=S)NC1CC2CCCC(C1)N2Cc1ccco1 (centres undefined)
-9%	3.4%	-1	-2%	O=C(CSc1nc2ccccc2c(=O)n1Cc1ccco1)N1CCCC1
-8%	0.2%	2	-12%	Cc1ccc(N2CCOCC2)c2c1C(=O)c1ccccc1C2=O
